Screening data as filed in PubChem BioAssay.
Sfp inh: qHTS Assay for Inhibitors of Bacillus subtilis Sfp phosphopantetheinyl transferase (PPTase) | 4'-phosphopantetheinyl transferase ffp (Bacillus subtilis), Q9F4F7 | Biochemical Sfp PPTase activity, qHTS | Potency, µM, inactives show max response, negative = inhibition, actives largely listed as inhibitors | actives 3.5% (n = 310,000); active = well fitted inhibition curve with a large enough effect; inconclusive = small, poorly fitted or top-dose-only effect, or another doubt; inactive = no such curve, though single readings can be large or run the other way;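 also: the enzyme is Sfp with the accession as filed and its product quenches rhodamine fluorescence; potency is read from the fitted curve at half-maximal effect; 0% = enzyme reaction without inhibitor and -100% = no enzyme wells; top concentration of the series not given in the record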
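Sfp 15 nM + cpd, 15 min RT; start w/ rhodamine-CoA 5 uM, BHQ-2-YbbR 12.5 uM (final); 50 mM Hepes pH 7.6, 10 mM MgCl2, 0.01% NP-40, 0.01% BSA; read 525/598 nm at 0 and 30 min.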
ClpP mod: qHTS Assay for Activators of ClpP | purified B. subtilis ClpP, FRET peptide cleavage, 20 min | actives 1.9% (n = 340,000) | Potency, µM (doses to about 57.5 µM), for the others: at the top dose activity change, negative = active | AID 651965, 2013 | ATP-dependent Clp protease proteolytic subunit (Bacillus subtilis (strain 168)), P80244; active = well fitted falling curve with a large enough effect; inconclusive = small, poorly fitted or top-dose-only effect; inactive = no such curve, though single readings can be large or run the other way; also: potency is read from the fitted curve at half-maximal effect; the source files actives as falling curves though it sought activators and does not explain the sign; nearly all actives have a fitted effect of over 65% in size; many hits overshoot -100%
Target sequence (P80244 whole entry, looked up): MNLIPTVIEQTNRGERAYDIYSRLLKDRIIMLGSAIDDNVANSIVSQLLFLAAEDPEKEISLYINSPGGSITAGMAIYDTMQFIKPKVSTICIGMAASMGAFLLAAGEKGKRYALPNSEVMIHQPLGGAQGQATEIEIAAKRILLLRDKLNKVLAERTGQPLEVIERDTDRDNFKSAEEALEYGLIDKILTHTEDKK
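FRET quenching reversal measured ClpP activation: 10 microg/mL B. subtilis ClpP at pH 8 with the FRET-FV decapeptide, read at 430 nm after 320 nm excitation. The 20-min minus 0-min signal was scaled between DMSO/no-enzyme wells and ADEP (5.8 microM final).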
TRPML1 ag: qHTS for Agonists of the Human Mucolipin Transient Receptor Potential 1 (TRPML1). activation, % (no concentration beside the values). actives 0.12% (n = 410,000). TRPML1-expressing cells, Ca2+ dye fluorescence, FDSS; host cell line not named in the record; reference of the full effect not given here; in the data active = activation above about 50%; inconclusive = about 30% to 50%; inactive = below about 30%; also: 0% is about no effect; the text of the record puts the active cut at 80%
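TRPML1-DL cells, Tet-induced overnight (~16 h, 37 degrees C), loaded 45-90 min at room temperature with Ca8 no-wash calcium dye plus quencher. FDSS fluorescence: 10 s baseline, compound pin-transfer, 110 s agonist read, then EC80 54-4 (4uM final) and 110 s antagonist read.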
PINK1 expr mod: A Quantitative High throughput Screen to Identify Chemical Modulators of PINK1 Expression | PINK1 immunofluorescence, high-content cytometry, 24 h | Potency, µM (top dose mostly 76.6 µM), without a hit: at the highest dose activation (PINK1 increase), usual class: activators | actives 0.2% (n = 410,000) | AID 624263, 2012; active = well fitted activation curve with a large enough effect; inconclusive = small, poorly fitted or top-dose-only effect; inactive = flat fitted curve, though single readings scatter; cell line not stated here;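 also: potency is read from the fitted curve at half-maximal effect; % of control where 0% means no effect; nearly all actives have a fitted effect of over 65% in size; a mitochondrial uncoupler was the plate control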
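PINK1 protein, normally rapidly degraded, was detected by immunofluorescence after 24 hour compound treatment of a stable cell line. Titration data (5 concentrations) came from laser-scanning cytometry, with CCCP-treated wells as controls.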
Menin MLL FP FL: qHTS Assay for Inhibitors Targeting the Menin-MLL Interaction in MLL Related Leukemias: Competition With Fluorescein Labeled MLL-derived Peptide; FP activity change, % at 61.4 µM; 290,000 tested, under 10 active; Fluorescence polarization, fluorescein-MLL peptide displacement from menin; inconclusive = falling polarisation curve, or a change in total fluorescence; inactive = total fluorescence flat and polarisation flat or rising; no compound was filed as active; the % refers to the polarisation; negative = inhibition;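 also: % of control where 0% means no effect; inhibitors lower the polarisation; unlabelled MLL peptide was the positive control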
TRPV1 potentiator: HTS Assay for Compounds that Act as Potentiators of the Vanilloid Receptor 1. Transient receptor potential cation channel subfamily V member 1 (Homo sapiens), Q8NER1. TRPV1-expressing cells, Fluo-8 calcium influx, capsaicin EC20 potentiation; host cell line not named in the record; control for the full effect not named in the record. potentiation, % at 8.33 µM. actives 0.02% (n = 320,000); active means potentiation above 80%; inconclusive means 30% to 80%; inactive means below 30%; also: 0% is about no effect
Target sequence (Q8NER1 whole entry, looked up): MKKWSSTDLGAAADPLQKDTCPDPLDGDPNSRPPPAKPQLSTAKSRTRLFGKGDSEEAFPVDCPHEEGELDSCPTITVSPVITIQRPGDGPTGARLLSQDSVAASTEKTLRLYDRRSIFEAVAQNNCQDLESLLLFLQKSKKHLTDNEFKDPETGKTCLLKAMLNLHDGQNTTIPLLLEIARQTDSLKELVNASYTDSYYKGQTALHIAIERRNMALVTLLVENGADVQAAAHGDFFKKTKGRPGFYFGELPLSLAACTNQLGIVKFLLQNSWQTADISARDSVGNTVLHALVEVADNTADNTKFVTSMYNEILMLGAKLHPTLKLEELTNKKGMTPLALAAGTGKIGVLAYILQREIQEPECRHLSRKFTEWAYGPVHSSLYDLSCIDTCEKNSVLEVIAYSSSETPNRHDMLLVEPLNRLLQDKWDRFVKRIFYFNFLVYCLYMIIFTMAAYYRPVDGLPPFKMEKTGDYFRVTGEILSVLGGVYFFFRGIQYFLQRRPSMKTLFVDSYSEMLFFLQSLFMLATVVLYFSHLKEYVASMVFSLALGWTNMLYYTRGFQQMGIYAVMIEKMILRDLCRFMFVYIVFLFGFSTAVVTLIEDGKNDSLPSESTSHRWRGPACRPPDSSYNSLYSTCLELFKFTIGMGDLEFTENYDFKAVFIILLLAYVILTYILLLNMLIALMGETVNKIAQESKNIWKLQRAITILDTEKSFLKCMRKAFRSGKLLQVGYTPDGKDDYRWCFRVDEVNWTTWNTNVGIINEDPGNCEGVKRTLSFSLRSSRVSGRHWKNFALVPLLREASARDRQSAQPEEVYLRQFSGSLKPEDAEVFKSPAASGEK
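Cells expressing TRPV1 were dye-loaded with Fluo-8 and read kinetically: 10 s baseline, 3 min after compound (agonist portion), then 2 min after EC20 capsaicin (allosteric enhancer portion). Calcium-bound dye fluorescence at 480/520 nm.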
TRPML1 blocker: qHTS for Inhibitors of the Human Mucolipin Transient Receptor Potential 1 (TRPML1) | Mucolipin-1 (Homo sapiens), Q9GZU1 | TRPML1-inducible cells, Ca2+ dye fluorescence, FDSS; stronger effect = lower value; inhibition of EC80 agonist-evoked calcium signal | activity change, negative = inhibition, % (no concentration beside the values) | actives 0.02% (n = 390,000) | AID 624415, 2012; in the data active means activity change below about -50%; inconclusive means about -30% to -50%; inactive means above about -30%;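 also: stimulus is agonist 54-4 at its EC80 concentration; % is scaled to controls: 0 for no effect and ±100 for the full control effect; compound concentration not given in the record; the text of the record puts the active cut at -80%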
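Calcium fluorescence in TRPML1-DL cells induced overnight with Tet: a 110 s read after compound pin addition, then a 110 s antagonist read after challenge with 54-4 at 4 uM final (EC80).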
* marks the source's active call; other numbers are inactive results; ? = inconclusive; . = no result given; & = joins results of further samples; [ ] = dose if it differs, or a comment.

SMILES	Sfp inh	ClpP mod	TRPML1 ag	PINK1 expr mod	Menin MLL FP FL	TRPV1 potentiator	TRPML1 blocker
COC1=CC(=O)[C@@]2([C@@H]1O)[C@@H](Cl)C[C@]13C(OC)=C(OC)C(=O)C[C@]21CCN3C	.	1.6%	0.2	0.0%	.	.	-12
O=C1SC(c2ccccc2)=N/C1=C/c1ccco1	-4%	0.3%	0.3	?	?	6	-12
O=C(Nc1ccccc1C(=O)NCCCN1CCOCC1)c1ccc(F)cc1F	-5%	1.4%	-0.5	1.2%	.	3	5
COc1cc(-c2nnc3n2CCCCC3)cc(OC)c1OC	16%	1.1%	0.4	-1.2%	7.8	1	13
O=C(c1ccc(F)cc1F)N(Cc1ccccn1)Cc1ccco1	-6%	0.7%	1.0	7.8%[38.3 µM]	0.4	-8	12
CN(C)c1ncnc2ccc(-c3cccc(C#N)c3)cc12	11%	.	.	3.6%	0.9	.	.
Cc1ccc(C)c(OCCC(=O)Nc2cc(S(=O)(=O)N3CCCCC3)ccc2C)c1	.	.	-0.7	-0.3%	.	.	4
CC#CCCCC(=O)Nc1cc(OC)nc(OC)n1	7%	-1.1%	-0.9	4.5%	0.6	-2	-15
Cc1ccccc1S(=O)(=O)Cc1ccc(C(=O)N(C)C2CCCCC2)o1	8%	-0.6%	0.4	-1.4%	.	9	29
Cc1cc(C)c2c(=O)n(CC(=O)NC3CCCC3)sc2n1	2.8µM*	-7.7%	.	-0.4%	8.3	-13	.
COc1ccc2c(c1)c1c(c(=O)n(-c3ccc(C)cc3)c(=O)n1CC(=O)N1CCCC1)n2C	.	4.3%	0.2	1.1%	.	.	-6
NC(=O)c1ccc(NC(=O)COC(=O)c2n[nH]c3ccccc23)cc1	.	-0.3%	0.1	1.9%	.	4	-6
CN(C)Cc1ccccc1-c1cncnc1NCc1cccs1	17%	.	.	0.4%	3.6	.	.
CCCNC(=O)c1cc2cc([N+](=O)[O-])ccc2s1	12%	0.6%	-0.6	0.4%	-2.7	-33	6
O=[N+]([O-])c1ccc(NC(=S)N2CCN(c3ccc(F)cc3)CC2)cc1	-7%	18µM*	-0.8	6.0%	0.1	0	9
COc1ccc(C(=O)O)cc1NC(=S)NC(=O)CSc1ccc(Cl)cc1	-2%	-2.2%	-0.1	-1.4%	3.9	10	4
COc1cc(-c2cc(C(=O)O)c3cc4ccccc4cc3n2)cc(OC)c1OC	.	-20%	0.3	1.5%	.	.	-12
CCCCc1cc(=O)oc2cc(OCC(=O)NCC3CCC(C(=O)O)CC3)ccc12 (configuration not stated)	7%	4.2%	0.2	-0.6%	2.1	4	-2
O=C(CN1CCC(O)(c2ccccc2)CC1)Nc1ccc2c(c1)OCCO2	1%	-0.8%	3.0	1.0%	-4.1	3	-4
CC(NC(=O)CNC(=O)c1sc2ccccc2c1Cl)c1ccc(S(N)(=O)=O)cc1 (configuration not stated)	.	-0.9%	-0.7	2.8%	.	5	11
CC(=O)Nc1ccc(CCc2nc3ccccc3[nH]2)cc1	21%	-3.8%	1.4	1.3%	0.6	-5	-15
COc1ccc(C(=O)NCc2nnc(SCC(=O)Nc3nnc(C)s3)o2)cc1OC	-3%	-1.3%	-0.1	2.5%	-3.2	-2	1
CN(CCOc1ccccc1)CC(=O)Nc1cccc(C#N)c1	6%	.	-0.5	0.6%	-0.1	1	-14
COc1ccccc1CNC(=O)COC(=O)c1cc(C)oc1C	18%	-2.6%	1.7	-0.7%	-1.4	-9	3
Cc1cc(=O)n(Cc2ccccc2)c2ccccc12	10%	-5.7%	2.4	2.8%	-1.9	9	13
COc1ccccc1N1C(=O)CC(N2CCN(c3ccc(F)cc3)CC2)C1=O (configuration not stated)	12%	-3.2%	0.3	-0.9%	-3.5	-12	22
COC(=O)c1cc2c(n(Cc3ccccc3)c1=O)CCCC2=O	.	5.1%	-0.7	1.8%	.	.	-13
CCOc1ccc2[nH]cc(C(=O)O)c(=O)c2c1	3%	-7.0%	0.4	0.9%[38.3 µM]	2.1	15	11
Cc1ccc2nc(N3C(=O)C(O)=C(C(=O)c4ccc(C)o4)C3c3ccco3)sc2c1 (configuration not stated)	.	0.2%	-0.2	?	.	1	-15
O=C(NCC1CCCO1)c1nn2c(C(F)(F)F)cc(-c3cccs3)nc2c1Cl (configuration not stated)	11%	.	0.1	6.9%	?	10	-14
Cc1cc(C)c2c(=O)cc(CSCC(=O)Nc3ccccc3Cl)[nH]c2c1	.	-3.8%	5.8	-0.7%	.	.	-18
O=[N+]([O-])c1ccc(CSC2=NCCS2)cc1	13%	.	-0.1	-0.9%	2.7	?	-2
CCc1nc2c(OCc3ccc(C(=O)OC)cc3)cccn2c1N(C)C(=O)C(C)C	.	1.5%	-1.3	0.9%	.	.	.
COC(=O)C(C(=O)N1CCN(C)CC1)C1CCCCCC1 (configuration not stated)	10%	-0.1%	0.3	-0.9%	4.9	-1	-27
COc1ccc(CN(C#N)c2nc(C)cc(C)n2)cc1	15%	0.4%	-0.1	0.2%	-1.1	-1	12
COc1ccc(CN2C[C@@H](CO)O[C@@H](n3cnc4c(NCc5cc(OC)c(OC)c(OC)c5)ncnc43)C2)cc1	.	-4.6%	-1.0	3.5%	.	.	.
Clc1cccc(N2CCN(c3nc4ccccc4c4nc(-c5cccnc5)nn34)CC2)c1	.	-2.6%	-0.4	-0.5%	.	.	15
CCOc1nc(NC(=O)NS(=O)(=O)Oc2ccccc2Cl)nc(-c2ccccc2)n1	-2%	-0.2%&2.5%	4.0&-0.5	1.0%	-3.5	3	1&14
CN1CCN(c2ncc3nc(-c4cccs4)c(=O)n(Cc4ccc(F)cc4)c3n2)CC1	?	.	.	12%	?	.	.
COC(=O)/C=C1/SC(=NC(=O)c2ccc(Cl)cc2)NC1=O	.	.	0.7	0.7%	.	.	10
Nc1nc2c(nc(N3CCCCC3)n2[C@@H]2O[C@H](CO)[C@@H](O)[C@H]2O)c(=O)[nH]1	-5%	.	-0.6	3.8%	-2.6	0	-8
Nc1ccc(CCCC(=O)NCc2cccnc2)cc1	.	2.0%	0.1	3.7%	.	.	-8
CCc1ccc(CNC(=O)c2ccc(OC3CCN(C(=O)COC)CC3)cc2)nc1	-1%	-2.7%	1.1	-1.7%	.	0	19
COc1ccc(S(=O)(=O)n2cccc2)c(OC)c1	6%	-2.5%	0.2	-0.4%	3.0	4	25
O=[N+]([O-])c1ccccc1Oc1ccccc1Cl	-8%	.	1.6	0.3%	0.8	-11	-1
COc1ccc(NC(=O)Cn2cccc2)cc1Cl	13%	-0.2%	-0.5	-0.2%[38.3 µM]	1.7	4	7
CCCc1cc(C(=O)NCCc2ccccc2)no1	17%	-0.7%	0.1	4.3%	2.4	-16	-7
C/C(=N\O)c1ccc(Cl)cc1Cl	1%	-0.6%	-0.4	5.1%	?	3	-12
Oc1ccc(/C=N/NC(=S)NCCN2CCOCC2)c(O)c1	7%	-26%	0.0	-1.4%	2.8	1	3
CCNC(=O)/C(=C/c1ccc2c(c1)OCO2)NC(=O)c1ccc(Br)cc1	7%	0.1%	-0.9	-1.6%	-0.4	12	-7
COc1ccc2nc(NN=C(C)c3ccccn3)cc(C)c2c1	.	-13%	0.7	-6.7%	.	.	2
CC(C)Oc1cccc(-c2nnc(SCC(=O)Nc3ccc4c(c3)OCCO4)n2N)c1	2%	-1.3%	0.1	-14%[38.3 µM]	0.1	-8	19
O=C(Nc1ccc2c(c1)OCO2)N1CCC(CO)(CC2CCCCO2)CC1 (configuration not stated)	21%	.	0.1	-1.5%	-3.6	-4	-16
Cc1ccc(C)c(N2CCN(C(=O)C3CCN(c4nnc(N5CCCC5=O)s4)CC3)CC2)c1	-12%	1.9%	0.9	0.4%	11	.	-13
CCn1ccnc1CN1CCc2c([nH]c3ccccc23)C1C1CCCCC1 (configuration not stated)	-10%	.	-0.7	1.4%	-12	-12	11
CCc1nc2c(OCc3ccccc3)cccn2c1N(C)C(=O)c1ccc(OC)cc1	.	-0.8%	-0.7	-0.1%	.	.	.
Cn1c2c(c(=O)[nH]c1=O)C(c1cccc(O)c1)C1=C(N2)c2ccccc2C1=O (configuration not stated)	2%	.	1.0	-0.6%	-0.8	7	2
O=C(C[C@H]1C/C=C\C[C@@H](Cc2ccc(F)cc2)C(=O)OC[C@H]2CCCN2C1=O)N[C@@H](CO)Cc1ccccc1	.	-3.4%	1.7	0.5%	.	.	27
COc1ccc2c(COC(=O)CNS(=O)(=O)c3ccc(C)c(C)c3)cc(=O)oc2c1	.	3.8%	-0.4	-0.3%	.	4	-6
Nc1ccc(Oc2ccc3nc(-c4ccccc4)c(-c4ccccc4)nc3c2)cc1	1%	0.7%	-0.1	3.2%	1.0	6	-14
The list goes on.
SMILES	Sfp inh	ClpP mod	TRPML1 ag	PINK1 expr mod	Menin MLL FP FL	TRPV1 potentiator	TRPML1 blocker
Cc1nn(CC2CC2)c(=O)n1-c1ccc(Cl)cc1	-2%	.	0.4	0.5%	-2.5	5	-7
Cc1cc(/C([O-])=C(/C(=S)Nc2ccccc2)[n+]2ccccc2)c(C)n1-c1ccccc1	-10%	-2.7%	1.8	-0.1%	8.8	3	-16
OCC1(Cc2cccc(Cl)c2)CCCN(Cc2ccc(F)c(F)c2)C1 (configuration not stated)	5%	0.6%	0.9	5.9%	4.3	-21	12
COc1ccc(N2CCN(C(=O)c3ccc(C)cc3Cl)CC2)cc1	5%	-0.4%	0.0	4.5%[38.3 µM]	?	-7	2
CCCCNC(=O)COC(=O)CCC(=O)c1ccc(F)cc1	13%	-0.1%	-1.3	0.1%	1.7	-13	-6
O=C(Cc1ccc(Cl)cc1)Nc1cccc(S(=O)(=O)Nc2ccccc2F)c1	21%	-2.1%	0.5	1.2%	-1.7	5	-10
CCOC(=O)CS(=O)(=O)c1nc(-c2ccc(F)cc2)cc(C(F)(F)F)n1	-61%	22µM*	0.0	-0.8%	0.0	9	8
